Screening data as filed in PubChem BioAssay.
Polio RdRp inh – inhibitors of poliovirus RNA polymerase binding and polymerization; P03300; poliovirus polymerase elongation, fluorescence polarization; hits give low values; % elongation, % (compound at 16.7 µg/mL); 150,000 tested, 0.66% active; in the data active = % elongation below about 90%; note: some results filed as inactive read as strong as hits
Target sequence (P03300 1749-2209 limits assumed): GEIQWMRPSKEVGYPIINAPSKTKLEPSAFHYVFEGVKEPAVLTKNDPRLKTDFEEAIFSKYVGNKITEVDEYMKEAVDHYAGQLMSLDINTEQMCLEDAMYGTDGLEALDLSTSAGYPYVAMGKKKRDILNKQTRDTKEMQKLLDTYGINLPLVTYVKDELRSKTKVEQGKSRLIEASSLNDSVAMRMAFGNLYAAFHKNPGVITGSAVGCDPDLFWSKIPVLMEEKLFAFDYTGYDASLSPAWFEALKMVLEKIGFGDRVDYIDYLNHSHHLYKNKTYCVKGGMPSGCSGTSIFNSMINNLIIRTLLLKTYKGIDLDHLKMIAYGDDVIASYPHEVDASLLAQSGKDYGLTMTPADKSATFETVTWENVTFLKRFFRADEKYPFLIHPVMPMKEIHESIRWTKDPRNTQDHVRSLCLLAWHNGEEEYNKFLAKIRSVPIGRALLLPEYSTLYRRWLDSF
Mtb MenB inh – blocks the Mycobacterium tuberculosis MenB enzyme. MenB enzyme assay, absorbance read-out; some hits fall short of the stated cut. inhibition, %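 (about 12 µg/mL by stock and volumes)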. 100,000 tested, 0.43% active. AID 540299;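 active = mean of two replicates above 30%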;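 note: 0% = no compound and 100% = wells with inactive enzyme; the first replicate is given; strong numbers were not always called active; inactives centre near -10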
Target sequence (P9WNP5 whole entry, looked up): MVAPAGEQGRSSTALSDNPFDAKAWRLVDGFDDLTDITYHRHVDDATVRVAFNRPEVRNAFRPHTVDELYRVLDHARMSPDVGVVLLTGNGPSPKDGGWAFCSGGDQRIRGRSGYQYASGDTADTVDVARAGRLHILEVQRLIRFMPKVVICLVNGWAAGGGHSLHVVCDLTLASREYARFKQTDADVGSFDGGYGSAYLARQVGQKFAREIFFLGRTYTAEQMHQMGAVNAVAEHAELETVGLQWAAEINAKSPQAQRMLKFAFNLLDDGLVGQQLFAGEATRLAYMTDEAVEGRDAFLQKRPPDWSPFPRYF
MbtI inh – inhibitors of Mycobacterium tuberculosis siderophore enzyme MbtI; P9WFX0; purified MbtI enzyme, fluorescence intensity read-out; inhibition, %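 (about 17 µg/mL by stock and volumes)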; 100,000 tested, 0.89% active; AID 493033;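 active = above 50% in both replicates, above 80% if mildly self-fluorescent; inactive = the rest, strongly fluorescent compounds included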;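 note: 0% = mean of negative and 100% = mean of positive controls; one replicate is shown; some compounds called inactive have numbers as strong as hits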
Polio RdRp inh intensity – second read-out of Polio RdRp inh, no call of its own (marks repeat the call); % elongation; measured here: total intensity read-out; formula for this scale not given here;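 total fluorescence in place of polarization; lower means less elongation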
Starred values were filed as active, the others as inactive; . = no result given.

SMILES	Polio RdRp inh	Polio RdRp inh intensity	Mtb MenB inh	MbtI inh
CNc1nc(SCC(=O)OC)nc(N2CCOCC2)n1	104.0	104.0	55.9*	2.5
CC1Sc2cc(S(=O)(=O)NCCc3ccccc3)ccc2NC1=O (configuration not stated)	100.0	105.0	13.9	2.6
CCOC(=O)C1CCN(C(=O)c2ccccc2NC(=O)C2=CSCCO2)CC1	101.0	102.0	-28.7	-14.0
CC1(C)CC(=O)c2cc(OCC(=O)NCc3ccccc3)ccc2O1	100.0	104.0	-1.4	108.5
Cc1cc(-c2cc(N)n(-c3ccccc3)n2)c(C)n1-c1ccccc1F	102.0	100.0	-7.5	-6.0
Cc1[nH]c2ccccc2c1C(=O)CN1C(=O)NC(CC(C)C)C1=O (configuration not stated)	107.0	113.0	-5.1	3.2
COc1ccc(C(=O)COC(=O)c2oc3ccccc3c2C)cc1OC	98.0	95.0	-23.1	-3.5
O=C(OC1OCCOC1OC(=O)c1ccc(F)cc1)c1ccc(F)cc1 (configuration not stated)	98.0	98.0	-10.8	1.6
CC(C)(C)c1csc(=Nc2ccc(F)cc2F)o1	95.0	100.0	-3.0	-9.4
CC(=O)N1CC(C)Sc2cc(S(=O)(=O)N3CCCCC3)ccc21 (configuration not stated)	102.0	108.0	-7.1	-7.8
CC(C)N(Cc1nc2ccccc2c(=O)[nH]1)C(=O)c1cccc(C#N)c1	100.0	107.0	-17.9	-3.5
COc1ccccc1C(=O)Nc1ccc2c(C)cc(=O)oc2c1	102.0	100.0	-29.9	10.1
CC(=O)N1CCN(Cc2csc(-c3ccc(F)cc3)n2)CC1	103.0	110.0	5.1	9.8
CSc1n[nH]c(NC2=CC(=O)CCC2)n1	105.0	100.0	-26.0	33.3
O=C(NCCCN1CCN(c2ccccc2F)CC1)C1C2C=CC3(CN(Cc4ccccc4Cl)C(=O)C13)O2 (configuration not stated)	100.0	102.0	-13.6	-13.5
CC1CCCC(C)N1NC(=O)c1cccc(S(=O)(=O)N2CCc3ccccc32)c1 (configuration not stated)	103.0	101.0	-24.3	-7.6
c1ccc(-c2cnc3n2CCCCC3)cc1	101.0	98.0	.	-11.9
C=CCN1C(=O)C(O)(c2sc(N3CCOCC3)nc2C)c2ccccc21 (configuration not stated)	99.0	89.0	-37.2	20.3
O=C(Nc1ccccc1OC(F)F)C12CC3CC(CC(O)(C3)C1)C2	96.0	96.0	-6.2	8.9
Cc1ccc(NC(=O)CNC(=O)C23CC4CC(CC(C4)C2)C3)c(O)c1	102.0	102.0	-36.7	-0.2
S=C(NCc1ccccc1)c1ccccn1	100.0	104.0	-25.0	.
CC(OC(=O)/C=C/c1ccco1)C(=O)Nc1cccc(C(F)(F)F)c1 (configuration not stated)	114.0	114.0	-12.5	-1.0
COc1ccc(Nc2[nH]nc(NC(=O)c3ccc(S(=O)(=O)N(C)C)cc3)c2C#N)cc1	104.0	110.0	-14.3	-1.8
COc1ccc(/C=C/C(=O)NC2CC2)cc1	98.0	98.0	9.0	38.5
O=C(O)C1(C2CCC3OCOC3C2)SCCCS1 (configuration not stated)	104.0	108.0	-17.0	.
Next section:
SMILES	Polio RdRp inh	Polio RdRp inh intensity	Mtb MenB inh	MbtI inh
O=C(O)C1CCCN1C(=O)C12CC3CCC(CC(C3)C1)C2 (configuration not stated)	101.0	102.0	.	-6.4
Cc1cc(NCc2ccccc2)n2ncnc2n1	104.0	90.0	5.2	.
O=C(O)c1cc(-c2ccccc2)nc2c1cnn2Cc1ccncc1	101.0	98.0	-4.1	37.5
O=C(COC(=O)c1cccc(S(=O)(=O)N2CCCC2)c1)Nc1cccc(F)c1	100.0	105.0	-2.2	-3.2
CCN(C(=O)CSc1ncccn1)c1ccccc1	104.0	99.0	.	1.9
C#CCSc1n[nH]c(C(C)(C)C)n1	100.0	102.0	10.2	-5.7
COc1ccc(S(=O)(=O)N2C3CCC2CC(NC(=O)C2CC2)C3)cc1 (configuration not stated)	99.0	102.0	-29.7	-5.6
O=C(CCSc1ccc(Cl)cc1)Nc1ccc(F)c(F)c1F	104.0	105.0	.	-1.5
O=C(OC1CCCCC1=O)C1CCN(S(=O)(=O)c2cccs2)CC1 (configuration not stated)	103.0	105.0	-2.1	-11.4
O=C(Cc1ccc(Cl)cc1)Nc1ccccn1	102.0	100.0	-38.5	8.3
O=C(CCCc1ccccc1)c1ccc2c(c1)OCCO2	110.0	113.0	-19.7	.
CSc1nnc(C2CCCN(C(=O)N(c3ccccc3)c3ccccc3)C2)n1C (configuration not stated)	101.0	105.0	-32.1	-8.4
CC1CCCC(C)N1C(=O)Nc1ccc(Cl)c(Cl)c1 (configuration not stated)	101.0	98.0	-21.7	.
CN1CCN(CCNC(=O)c2cc3c(=O)n(C)c4ccccc4c3n2C)CC1	102.0	102.0	2.6	31.8
Cc1ccccc1OCC(=O)NC1CCCCC1NC(=O)COc1ccccc1C (configuration not stated)	102.0	102.0	-11.4	.
CCc1ccc(N2CC(C(=O)OCC(=O)Nc3ccccc3)CC2=O)cc1 (configuration not stated)	102.0	103.0	-31.8	-1.5
COc1ccccc1-n1c(C23CC4CC(CC(C4)C2)C3)n[nH]c1=S	104.0	108.0	-36.9	5.1
CC1CN(C(=O)c2ccccc2Nc2ccc(SC(F)F)cc2)CC(C)O1 (configuration not stated)	99.0	98.0	-15.5	-3.4
CC(Oc1ccc(C#N)cc1)C(=O)NN (configuration not stated)	105.0	106.0	-7.3	-4.6
CC(C)(C)c1ccc(-c2nnc(SCc3cccc(C(N)=O)c3)n2-c2ccc3c(c2)OCO3)cc1	100.0	106.0	-13.9	-6.1
Cc1nsc(Nc2ccccc2)c1C#N	101.0	108.0	-12.7	0.9
COc1ccc(-n2nc(C(=O)NCc3ccco3)c3c4ccccc4n(C)c3c2=O)cc1	101.0	99.0	-25.6	4.1
CCOC(=S)SCc1c(C)c(C)c(C)c(C)c1C	106.0	102.0	-16.2	-3.4
CC1=CC(C)=NS(=O)(=O)N1	101.0	102.0	7.7	-1.9
COc1ccc(C)cc1-n1nnnc1SCc1nc2sc3c(c2c(=O)[nH]1)CCC3	118.0	135.0	-26.4	-8.4
The results go on.
SMILES	Polio RdRp inh	Polio RdRp inh intensity	Mtb MenB inh	MbtI inh
CCCN(C(=O)c1ccccc1N)c1c(C)n(C)n(-c2ccccc2)c1=O	99.0	101.0	3.6	-9.9
Cc1ccc(-n2c(N)c(C(N)=O)sc2=S)cc1C	98.0	96.0	-11.8	94.0*
CC1CC(C)CN(CCN)C1 (configuration not stated)	101.0	104.0	52.4*	-5.6
CCCCN1C(=O)c2ccc(C(=O)C(C#N)c3nc4ccccc4n3C)cc2C1=O (configuration not stated)	96.0	84.0	1.9	-17.0
Nc1ccc(CCN2CCCCCC2)cc1	103.0	103.0	-2.4	-6.7
C=CCNC(=O)CN1C(=O)C(CC)Oc2ccccc21 (configuration not stated)	101.0	101.0	-30.8	-9.3
CC1=CC2(CCC(C)CC2C(=O)NCc2ccc(Cl)cc2)OC1=O (configuration not stated)	105.0	103.0	-11.5	9.1
C=CCn1c(=O)sc2cc(NC(C)=O)ccc21	102.0	107.0	-6.2	.
COC(=O)c1cc(-c2ccc(N)cc2)nc2ccc(C)cc12	102.0	105.0	-5.5	9.7
Cc1ccc(/C=N/N=C2/NC(=O)CS2)o1	101.0	102.0	-13.2	38.4
O=C(NC(C(=O)c1ccccc1)n1cccnc1=O)c1ccccc1 (configuration not stated)	99.0	99.0	-12.4	22.6
Cc1ccc(-c2nnc(Nc3ccccc3)c3ccccc23)cc1S(=O)(=O)N1CCCCC1	102.0	105.0	3.6	9.1
Cc1ccc(S(=O)(=O)C2(C(=O)O)CC2)cc1C	101.0	102.0	-2.1	-5.8
C=C1CCC(OC(C)=O)C2(C)CCC3C(C)C(=O)OC3C12O (configuration not stated)	100.0	101.0	-6.2	19.6
O=C(/C=C/c1ccco1)NC(=S)NC12CC3CC(CC(C3)C1)C2	101.0	103.0	-0.2	-1.2
CC(=O)Nc1ccc(S(=O)(=O)C(C#N)c2nc3ccccc3nc2NCCN2CCOCC2)cc1 (configuration not stated)	103.0	107.0	-11.9	-5.8
CC(C)Oc1ccc(C(=O)N2CCCC2C(=O)O)cc1 (configuration not stated)	104.0	102.0	-11.2	-28.1
CCOC(=O)N1CCN(CC(=O)c2ccc(O)c(C)c2O)CC1	99.0	108.0	11.3	16.6
CCC1CCc2[nH]c(=S)c(C#N)c(C(F)(F)F)c2C1 (configuration not stated)	100.0	96.0	-74.4	20.8
COc1ccc(OC(=O)Nc2ccccc2)cc1	103.0	103.0	-58.8	-7.2
COC(=O)c1ccc(COC(=O)C2COc3ccccc3O2)cc1 (configuration not stated)	99.0	101.0	-16.9	7.0
CCN(C1CCCCC1)S(=O)(=O)c1ccc(S(=O)(=O)NC2CC2)cc1	102.0	100.0	-14.2	-8.5
Cc1ccc(N=Cc2c(O)n(C)c3ccccc23)cc1	101.0	98.0	4.0	12.8
CCOC(=O)c1c(CSc2n[nH]c(=O)n2CC)nc2ccccc2c1C	100.0	109.0	-25.0	0.5
CCc1ccc(NC(=S)N(CCN2CCOCC2)Cc2ccccc2F)cc1	102.0	109.0	-40.0	4.2
Continuation:
SMILES	Polio RdRp inh	Polio RdRp inh intensity	Mtb MenB inh	MbtI inh
CCc1cccc(CC)c1N=C=S	104.0	109.0	-0.2	12.8
CCCCN(C)C(=O)c1cc(-c2ccc(OC)cc2)n[nH]1	102.0	101.0	-7.4	-29.1
O=C(Cc1cccc(F)c1)NCC(c1cccs1)N1CCOCC1 (configuration not stated)	106.0	109.0	-22.0	-2.5
CC(=O)OCC1OC(OC(C)(C)C)C(OC(C)=O)C(OC(C)=O)C1OC(C)=O (configuration not stated)	102.0	98.0	-42.2	-7.8
COc1cc(OC)cc(C(=O)N2CCN=C2c2ccccc2)c1	105.0	103.0	-8.3	5.2
CCCn1cnc(N)n1	100.0	99.0	-44.1	-5.3
CCN(CC)C(=O)CSc1cc(=O)n(C)c2cc(Cl)ccc12	99.0	99.0	-9.2	-1.3
Cc1ccc(N2C(=O)c3ccc(C(=O)N(CCO)c4ccccc4)cc3C2=O)cc1C	109.0	103.0	-18.7	.
O=C(CSc1oc(-c2cccs2)nc1S(=O)(=O)c1ccccc1)c1ccccc1	101.0	103.0	-10.1	8.3
Cc1c(N(C)S(=O)(=O)c2cccc(C(=O)Nc3ccccc3N3CCOCC3)c2)c(=O)n(-c2ccccc2)n1C	92.0	91.0	-26.1	48.8
CCCCN1C(=O)C(NC(C)=O)c2cc(Cl)ccc21 (configuration not stated)	102.0	106.0	1.3	15.1
Cc1nc2ccc3nc(NC(=O)c4ccccc4C)sc3c2s1	100.0	98.0	8.0	4.3
CC(/C=C/c1ccccc1)=N\n1c(C)cc(C)c(C#N)c1=O	105.0	106.0	-4.3	8.3
COc1ccccc1C1CC(=O)NC(C)=C1C(=O)OC1CCCC1 (configuration not stated)	99.0	104.0	-14.8	-3.0
O=C(CCC(=O)c1cccs1)Nc1ccc(F)c(F)c1F	103.0	108.0	.	-9.4
O=C(CSc1nnc(C23CC4CC(CC(C4)C2)C3)o1)NCCOc1ccccc1	100.0	102.0	4.4	-5.3
Cn1cnnc1SCc1ccc(C(=O)N=Nc2c(O)n(C)c3ccccc23)cc1	94.0	87.0	-18.6	5.5
O=C(NC(=O)N1CCCC1)c1ccc(Cl)cc1	102.0	101.0	1.1	-9.2
C=C1C2(C(=O)N3CCc4ccccc43)CCC(C2)C1(C)C (configuration not stated)	102.0	104.0	0.0	-10.2
COc1ccc(C2=NN(CCc3ccccn3)C(=O)C2)cc1	97.0	95.0	-11.1	8.8
CCNc1ncnc2oc(C)c(C(=O)OCC)c12	103.0	103.0	-25.9	-24.2
C/C(=N\NC(=O)NC1CCCCC1)c1ccc(OC(F)F)cc1OC(F)F	108.0	102.0	-13.6	-3.8
Cc1ccc(N=C2NC(=O)CC(C(=O)Nc3cccc4ccccc34)S2)cc1 (configuration not stated)	102.0	99.0	.	-10.1

Among those listed so far, ten have two or more sulfur atoms.
SMILES	Polio RdRp inh	Polio RdRp inh intensity	Mtb MenB inh	MbtI inh
CC1Sc2cc(S(=O)(=O)NCCc3ccccc3)ccc2NC1=O (configuration not stated)	100.0	105.0	13.9	2.6
CC(=O)N1CC(C)Sc2cc(S(=O)(=O)N3CCCCC3)ccc21 (configuration not stated)	102.0	108.0	-7.1	-7.8
O=C(O)C1(C2CCC3OCOC3C2)SCCCS1 (configuration not stated)	104.0	108.0	-17.0	.
O=C(OC1CCCCC1=O)C1CCN(S(=O)(=O)c2cccs2)CC1 (configuration not stated)	103.0	105.0	-2.1	-11.4
CCOC(=S)SCc1c(C)c(C)c(C)c(C)c1C	106.0	102.0	-16.2	-3.4
COc1ccc(C)cc1-n1nnnc1SCc1nc2sc3c(c2c(=O)[nH]1)CCC3	118.0	135.0	-26.4	-8.4
Cc1ccc(-n2c(N)c(C(N)=O)sc2=S)cc1C	98.0	96.0	-11.8	94.0*
CCN(C1CCCCC1)S(=O)(=O)c1ccc(S(=O)(=O)NC2CC2)cc1	102.0	100.0	-14.2	-8.5
O=C(CSc1oc(-c2cccs2)nc1S(=O)(=O)c1ccccc1)c1ccccc1	101.0	103.0	-10.1	8.3
Cc1nc2ccc3nc(NC(=O)c4ccccc4C)sc3c2s1	100.0	98.0	8.0	4.3
